Compound activity deposited in PubChem BioAssay by several laboratories.
HSV augment – enhancers of HSV replication in host cells, fold increase, host cell viability; HSV replication augmentation in cells; maximum fold increase; 220,000 tested, 0.005% active; AID 1956, 2009;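 active = peak rise of 1.5-fold or more in the series; inconclusive = self-fluorescent or not available for retest; tested in PC3 cells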;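 also: first round at 10 µM; read as green reporter fluorescence; hits show the peak of a series up to 25 µM; 1 = signal of infected wells without compound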
INS promoter inh – inhibitors of insulin promoter-driven GFP, primary screen, imaging, TRM-6 cells (human fetal islet line), eGFP reporter, cell count | reporter expression induced with tamoxifen | inhibition, % at 2 µM | 130,000 tested, 0.9% active;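 active = inhibition above the mean plus 3 SD, with well images judged a real hit on visual review, cut at about 60% in these data, passing the limit was not always enough; inconclusive = inhibition over the cutoff but images rejected on review; inactive = inhibition not above the cutoff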
PKD1 inh – inhibitors of human PKD1 kinase, biochemical, fluorescence polarization; Serine/threonine-protein kinase D1 (Homo sapiens), Q15139; PKD1 kinase fluorescence polarization assay; inhibition, %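 (about 10 µM by stock and volumes)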; 200,000 tested, 0.056% active; AID 797, 2007;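 active = inhibition of 50% or more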;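 also: controls were vehicle for no effect and a reference inhibitor for full effect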
GALR2 ag – GALR2 receptor agonists, primary screen, cell-based; Galanin receptor type 2 (Homo sapiens), O43603; GALR2-expressing cells, agonist activation read-out; activation, %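 (tested at 5 µM)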; 140,000 tested, 0.48% active;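 active = above mean plus 3 SD of all compounds, about 5% in these data, not always enough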;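 also: 0% = vehicle buffer wells and 100% = reference agonist at full effect; tested in CHO reporter cells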
Target sequence (O43603 whole entry, looked up): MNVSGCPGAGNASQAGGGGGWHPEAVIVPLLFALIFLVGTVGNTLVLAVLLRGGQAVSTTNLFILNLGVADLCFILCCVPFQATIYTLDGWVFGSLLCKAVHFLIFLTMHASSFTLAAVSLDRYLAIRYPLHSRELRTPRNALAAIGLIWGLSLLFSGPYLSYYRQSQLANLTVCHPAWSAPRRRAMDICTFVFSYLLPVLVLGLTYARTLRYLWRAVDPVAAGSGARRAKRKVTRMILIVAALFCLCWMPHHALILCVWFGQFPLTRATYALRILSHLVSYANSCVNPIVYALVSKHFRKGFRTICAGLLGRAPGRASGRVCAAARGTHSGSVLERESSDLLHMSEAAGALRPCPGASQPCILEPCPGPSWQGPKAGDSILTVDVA
RGS16-Gao HTS – modulators of RGS16 binding to Galphao, primary screen, biochemical, human proteins, multiplexed bead flow cytometry. Regulator of G-protein signaling 16 (Homo sapiens) + Guanine nucleotide-binding protein …. bead-based flow cytometry RGS16-Galphao binding, fluorescence; actives lie on both sides. binding response (% of control), % at 10 µM. 220,000 tested, 0.38% active. AID 1441, 2008;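 active = below 25% or above 175%, edge rows of some plates excepted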;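 also: Galphao activated by GDP with aluminum fluoride before binding; 100% = wells without compound and 0% = beads without RGS; some results beyond the cut were filed as inactive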
Target sequence (O15492 whole entry, looked up): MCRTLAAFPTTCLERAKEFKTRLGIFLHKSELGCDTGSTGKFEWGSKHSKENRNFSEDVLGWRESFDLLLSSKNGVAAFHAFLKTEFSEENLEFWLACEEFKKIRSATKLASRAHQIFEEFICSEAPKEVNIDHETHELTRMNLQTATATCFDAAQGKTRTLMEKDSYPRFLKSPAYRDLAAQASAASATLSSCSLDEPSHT
Target sequence (P09471 whole entry, looked up): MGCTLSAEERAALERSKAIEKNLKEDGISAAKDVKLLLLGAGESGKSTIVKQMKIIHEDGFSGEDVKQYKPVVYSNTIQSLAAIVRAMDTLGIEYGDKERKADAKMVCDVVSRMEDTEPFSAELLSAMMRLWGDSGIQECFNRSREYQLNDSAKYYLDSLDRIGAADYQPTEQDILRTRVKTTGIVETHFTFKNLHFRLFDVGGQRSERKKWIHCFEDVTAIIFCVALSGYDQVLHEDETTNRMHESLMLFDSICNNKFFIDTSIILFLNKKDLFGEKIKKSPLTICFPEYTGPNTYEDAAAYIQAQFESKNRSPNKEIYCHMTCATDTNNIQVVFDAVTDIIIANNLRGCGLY
INS promoter inh cell count – further read-out of INS promoter inh, marked with its call; normalized cell count, %; measured here: cell count, toxicity; reference of the scale not given here;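 cells exposed to compound for 48 h; stained nuclei by imaging scaled within each plate; lower means fewer cells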
HSV augment primary fold – second read-out of HSV augment, no call of its own (marks repeat the call); fold increase; compound at 10 µM; measured here: primary screen fold increase 10 uM; tested in PC3 cells;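 GFP signal in the first replicate; 1 = infected wells without compound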
* = called active by the depositor; i = inactive; u = inconclusive; x = not tested or not shown; & = joins results of further samples. Not a hit list. About 1.3% of those tested had a hit in this group.

SMILES	HSV augment	HSV augment primary fold	INS promoter inh	INS promoter inh cell count	PKD1 inh	GALR2 ag	RGS16-Gao HTS
O=C1OCCN1C(=O)[C@H]1[C@H](c2ccc([N+](=O)[O-])cc2)C(c2cccc(Cl)c2)=NN1c1ccccc1	i	0.93	-273	45	6	-3.2	51
Cc1ccc(O)c(NC(=S)NC(=O)/C=C/c2ccco2)c1	i	1.1	x	x	-2	x	100
Cc1ccc2cc(/C=N/NC(=O)[C@@H]3CCCN3)c(Cl)nc2c1	i	0.99	x	x	x	x	102
O=C(COC(=O)CNC(=O)c1cccc(F)c1)NCCC1=CCCCC1	i	0.94	x	x	-6	-0.8	102
C[C@@H]1O[C@@H](OC[C@H]2O[C@@H](Oc3c(-c4ccc(O)c(O)c4)oc4cc(O)cc(O)c4c3=O)[C@H](O)[C@@H](O)[C@@H]2O)[C@H](O)[C@H](O)[C@H]1O	i	0.94	x	x	x	x	101
CNC(=S)N1N=C2c3ccccc3CCC2C1c1ccccc1Cl (centres undefined)	i	0.99	x	x	x	x	103
O=C(O)/C=C/C(=O)Nc1ccc(-c2ccccc2)cc1	i	0.82&0.78	x	x	-7	x	100&93
C=CCOc1ccc(C2C(C(=O)c3cccs3)=C(O)C(=O)N2c2nnc(C)s2)cc1 (centres undefined)	i	1.1	-73	240	7	-0.1	x
Cn1c(C(O)c2ccc(Cl)cc2)nc(Cl)c1Cl (centres undefined)	i	0.84	x	x	-3	-4.2	101
CC(=O)c1c(C)[nH]c(C(=O)N2CCN(c3cc(Cl)ccc3C)CC2)c1C	i	0.69	x	x	0	6.2	111
CC1CCCCC1NC(=O)C1CCC(CNc2c(N3CCCCC3)c(=O)c2=O)CC1 (centres undefined)	i	0.83	x	x	x	x	98
C/C(N)=C(/C#N)C(=O)COC(=O)CCS(=O)(=O)c1ccccc1	x	x	-48	119	-2	-4.1	116
O=C(N/N=C/c1ccco1)c1cc(=O)[nH]c2ccccc12	i	0.96	x	x	1	x	103
O=C(Nc1ccc([N+](=O)[O-])cc1Br)c1cccnc1	i	1	0	66	-4	-0.9	126
CC(C)c1nc2oc3c(=O)[nH]cnc3c2c2c1COC(C)(C)C2	i	1	x	x	x	x	100
CCOC(=O)c1[nH]c(C)c(C(=O)NCCC2=CCCCC2)c1C	i	1.1	44	177	-4	-1.6	97
O=C(Nc1ccccc1)Nc1nnc(-c2ccccc2)o1	i	1	9	115	17	-3.4	94
C=CCn1c(SCc2cccnc2)nnc1-c1ccncc1	i	0.88	x	x	-13	-0.1	101
CC(C)C[C@H](NC(=O)N1CCN(c2ccccc2)CC1)C(=O)O	x	x	29	165	0	-1.4	96
O=C(CSc1ncccn1)Nn1cnnc1	i	1	23	87	6	-0.5	118
COC(=O)c1cc(C(=O)NC(C)(C)CC(C)(C)C)cc([N+](=O)[O-])c1	i	0.88	-20	69	-6	x	91
O=C1C2C3C=CC(C4CC34)C2C(=O)N1/N=C/c1ccc([N+](=O)[O-])s1 (centres undefined)	i	0.92	-13	51	1	-0.3	133
O=C1CCCN1c1ccc(S(=O)(=O)N2CCN(c3ccccc3)CC2)cc1	i	0.99	x	x	-1	x	110
CC(=O)c1sc(NC(=O)COc2ccc(Br)cc2)nc1C	i	0.96	7	91	1	x	154
Cc1cc(NC(=O)CN2C(=O)NC3(CCCCC3C)C2=O)no1 (centres undefined)	i	1.1	22	75	-17	-1.9	150
CCCCNc1c([N+](=O)[O-])c(=O)n(C)c2ccccc12	i	0.88	x	x	-1	x	105
Cc1ccc(C2CCN(C(=S)Nc3cccc(C)c3)C2)cc1 (centres undefined)	i	1.1	x	x	1	x	108
CCn1c(/C=C/N(C(C)=O)c2ccccc2)[n+](CCCS(=O)(=O)[O-])c2cc(Cl)c(Cl)cc21	i	1	-37	51	0	x	36
CCCCN(C)C(=O)CCC(=O)Nc1ccc2nc(N3CCN(C)CC3)cc(C)c2c1	i	0.86	x	x	-3	x	100
O=C(Nc1ccc2c(c1)OCCO2)c1ccco1	i	0.87	27	98	0	-0.6	105
N#Cc1c(-c2ccc(F)cc2)nc(-c2ccccc2)[nH]c1=O	i	1.1	x	x	-6	x	101
O=C(NCc1ccc2c(c1)OCO2)c1ccc(N2CCCCCC2)c([N+](=O)[O-])c1	i	1.1	x	x	2	0.2	92
O=C(NCC1([N+](=O)[O-])CN(C(=O)c2ccccc2)CN(C(=O)c2ccccc2)C1)c1ccccc1	i	0.91	x	x	5	x	107
COc1ccc(/C=N/Nc2nn3cnnc3c3ccccc23)cc1	i	1.1	x	x	x	x	100
COc1ccccc1OCCCCNCCO	i	0.88	22	75	-4	-1.3	102
O=C1Nc2ccc(Br)cc2C1(O)Cc1ccccn1 (centres undefined)	i	0.8	14	143	-1	-2.2	105
CCOC(=O)CN1C(=O)S/C(=C/C=C/c2ccc(N(C)C)cc2)C1=O	u	x	-223	98	10	-3.0	103
Cc1cccc(CN2CCN(C(=O)CCl)CC2)c1	i	0.95	x	x	-11	-1.8	103
Cc1ccc(C(=O)Nc2ccccc2C(=O)NC(C(=O)O)C(C)C)cc1 (centres undefined)	i	0.89	16	123	-9	-5.4	89
Cc1ccc(N=Cc2cc(Br)cc(Cl)c2O)cc1	i	1.1	x	x	-2	x	95
O=C(c1c(F)cccc1F)N1CCN(c2ncccn2)CC1	i	0.91	0	155	-8	-3.1	97
Cc1csc(N/N=C/c2ccccn2)n1	i	0.8	50	128	-5	x	97
CCNC(=S)NNC(=O)C1CCCCC1	i	0.91	x	x	-5	-1.3	99
Cc1cc(C)n(CC(=O)N/N=C/c2cc([N+](=O)[O-])ccc2O)n1	i	1	x	x	-11	-1.4	82
CCNC(=O)CC1C(=O)N(c2ccccc2)C(=O)N1CCc1ccc(OC)cc1 (centres undefined)	i	0.74	-82	73	8	-1.6	97
O=C1CCCC2=C1C(c1ccncc1)c1c(nc(SCc3ccccc3)[nH]c1=O)N2 (centres undefined)	x	x	20	107	-12	-0.9	104
O=C1OC(c2ccccc2)=C/C1=C/c1cccs1	i	1	37	114	-12	-2.3	96
Cc1cc(C)c(C)c(S(=O)(=O)NCC(=O)O)c1C	i	1.1	-43	126	0	-2.8	99
Cc1nc(NC(=O)C2CC2)sc1C(=O)N(C)C	i	0.89	x	x	-7	-2.5	110
O=C(Nc1nnc(SCc2ccc(F)cc2)s1)c1cnccn1	i	0.94	x	x	-5	x	96

Later entries.
SMILES	HSV augment	HSV augment primary fold	INS promoter inh	INS promoter inh cell count	PKD1 inh	GALR2 ag	RGS16-Gao HTS
COc1cccc(C=Nc2cc(C)on2)c1O	i	0.86	7	108	11	-0.2	100
CC1(NC(=O)Nc2ccccc2)CCS(=O)(=O)C1 (centres undefined)	i	1.1	x	x	x	x	101
O=C(NCCCN1CCN(c2ccc(F)cc2)CC1)c1cccc(N2CCCC2=O)c1	i	1	x	x	-4	-1.3	89
FC(F)(F)c1cccc(Sc2nc(-c3ccccc3)nnc2C(F)(F)F)c1	i	0.65	43	115	-1	-1.7	97
O=C(/C=C/c1ccccc1)NC1CC2CCC1C2 (centres undefined)	i	1	-16	70	-18	0.1	108
Cc1cc(C(=O)CSc2nnc(N)s2)c(C)n1Cc1ccco1	i	1.1	14	81	-2	x	102
CC(NC(=O)CN1C(=O)NC(Cc2ccccc2)(Cc2ccccc2)C1=O)C12CC3CC(CC(C3)C1)C2 (centres undefined)	i	0.98	-39	112	-1	-2.5	95
CC1=C/C(=N\OS(=O)(=O)c2ccccc2)C(C(C)C)=CC1=O	x	x	-317	4	2	9.6*	109
FC(F)(F)c1ccccc1NC1=NCCC1	i	1.1	-33	107	-4	x	98
COCCSc1ccccc1C(=O)NCc1ccc(S(N)(=O)=O)cc1	i	1.1	-23	136	-6	-0.6	68
O=C(CN1C(=O)NC2(CCCCC2)C1=O)Nc1ccc(F)cc1	i	0.83	47	86	-6	x	103
CCN(CC)c1ncnc2c1sc1nc(N3CCOCC3)c3c(c12)CCC3	i	0.63	-3	110	7	-2.0	103
O=C(O)CCS(=O)(=O)Cc1ccccc1F	i	1.1	x	x	-8	-2.4	98
COc1cc(OC)cc(C(=O)N(CN2CCCC2=O)c2ccccc2OC)c1	i	0.82	x	x	-10	0.0	104
CCCc1cc(=O)[nH]c(SCC(=O)Nc2nonc2N)n1	i	0.88	x	x	-9	-2.8	120
Cc1c(NC(=O)c2ccccc2)cccc1[N+](=O)[O-]	i	1.1	x	x	-1	-1.8	103
COc1ccc(C2CC(=O)C(C3NCCc4ccccc43)=C(O)C2n2cncn2)cc1 (centres undefined)	i	0.98	55	136	1	x	97
CN(C)c1ccc(NC(=O)/C=C/c2c(Cl)cccc2Cl)cc1	i	0.81	x	x	-6	0.5	101
COc1cccc2sc(Nc3nnc(-c4ccccc4Cl)o3)nc12	i	0.49	x	x	-10	0.1	100
CN1C(=O)CSc2ccc(NC(=O)N3CCc4ccccc43)cc21	i	0.94	x	x	-6	0.3	119
CCn1c(=N)c(C(=O)NCCCOC)cc2c(=O)n3cccc(C)c3nc21	i	0.96	22	102	-9	2.5	96
Cc1ccc2c(CN3CCCc4ccccc43)cc(=O)oc2c1C	i	1	-264	131	-10	-1.3	102
Cc1ccsc1/C=N/Nc1nc2ccccc2[nH]1	i	0.86	19	115	6	-1.4	103
CCc1ccccc1NC1c2ccccc2C(=O)N1c1cc(C)ccn1 (centres undefined)	i	1	x	x	9	-1.4	110
O=C(/C=C\c1ccco1)Oc1cccc2cccnc12	i	1	-29	77	1	x	91
Cc1ccc(Cl)cc1NC(=O)c1cnn2c1NC(c1ccco1)CC2C(F)(F)F (centres undefined)	i	1	-33	106	-10	0.0	103
Clc1ccc(C2[C@H]3CN(Cc4cccnc4)[C@H](c4ccccc4)C34CC2(c2ccccc2)C4)cn1 (some centres undefined)	i	0.98	x	x	x	x	99
CC(C)c1ccc(NC(=S)NNC(=O)C2CC2)cc1	i	0.94	x	x	6	x	97
CCOC(=O)c1c(NC(C)=O)sc2c(O)c(Br)ccc12	i	0.85	-33	94	-11	-0.4	102
CCCCn1c(=O)c(CCC(=O)OCC(=O)Nc2ccc(F)c(Cl)c2)nc2ccccc21	i	1	14	99	0	-0.9	100

Nothing new here: an excerpt of the list.
SMILES	HSV augment	HSV augment primary fold	INS promoter inh	INS promoter inh cell count	PKD1 inh	GALR2 ag	RGS16-Gao HTS
CCc1ccccc1NC1c2ccccc2C(=O)N1c1cc(C)ccn1 (centres undefined)	i	1	x	x	9	-1.4	110
O=C(/C=C\c1ccco1)Oc1cccc2cccnc12	i	1	-29	77	1	x	91
Cc1ccc(Cl)cc1NC(=O)c1cnn2c1NC(c1ccco1)CC2C(F)(F)F (centres undefined)	i	1	-33	106	-10	0.0	103
Clc1ccc(C2[C@H]3CN(Cc4cccnc4)[C@H](c4ccccc4)C34CC2(c2ccccc2)C4)cn1 (some centres undefined)	i	0.98	x	x	x	x	99
CC(C)c1ccc(NC(=S)NNC(=O)C2CC2)cc1	i	0.94	x	x	6	x	97
CCOC(=O)c1c(NC(C)=O)sc2c(O)c(Br)ccc12	i	0.85	-33	94	-11	-0.4	102

Further records.
SMILES	HSV augment	HSV augment primary fold	INS promoter inh	INS promoter inh cell count	PKD1 inh	GALR2 ag	RGS16-Gao HTS
CC(C)=CCSc1nnc(CCNC(=O)OC(C)(C)C)o1	i	1	-10	126	-8	-0.8	99
O=C(COC(=O)c1ccc(S(=O)(=O)Nc2ccccc2)cc1)NCC1CCCO1 (centres undefined)	i	0.9	x	x	x	x	109
Cc1cccc(N2C(=O)CCC2=O)n1	i	0.91	33	114	-2	-1.1	103
CC(=O)Nc1ccc(OCC(O)Cn2ccnc2)cc1 (centres undefined)	i	1	0	115	-3	x	103
CCOC(=O)c1ccc(NC(=O)CC2SCCNC2=O)cc1 (centres undefined)	i	0.96	x	x	1	-0.8	90
Cc1ccccc1NC(=O)CSCC(=O)Nc1ccccc1C	i	0.9	-2	100	1	-1.2	93
CCN(CC)CCN1C(=O)C(=O)/C(=C(/O)c2ccc(OC(C)C)cc2)C1c1cccs1 (centres undefined)	i	1.1	x	x	x	x	96
O=c1[nH][nH]c(=O)n1-c1ccccc1	i	1	x	x	4	x	104
